Screening data (PubChem)
NS1 inh = qHTS Assay for Inhibitors of Influenza NS1 Protein Function. AID 2326, 2010. S. cerevisiae slowed by influenza A NS1, growth recovery by OD600. 270,000 compounds, 0.4% hits. Potency, µM (highest dose often 46.1 µM), for the others: top-dose activity, positive = more growth; further: actives are rising curves; nearly all actives have a fitted effect of over 50% in size
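Growth recovery, yeast-based: influenza A NS1 expressed in S. cerevisiae causes slow growth, and suppressors are detected by OD600. The parent strain without NS1 is used as positive control.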
Cruzain inh noDet = qHTS Assay for Promiscuous and Specific Inhibitors of Cruzain (without detergent). Cruzipain (Trypanosoma cruzi), P25779. purified cruzain, Z-FR-AMC fluorescence, no detergent. Potency, µM, for inactives: max response, negative = inhibition, actives largely listed as inhibitors. 200,000 compounds, 2.3% hits. AID 1476, 2009; active means well fitted curve in the direction sought with a large enough effect; inconclusive means small, poorly fitted or top-dose-only effect, or another doubt; inactive means no such curve, though single readings can be large; an effect the other way counts as inactive or inconclusive;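 further: plate controls were enzyme without inhibitor for no effect and buffer without enzyme for full effect; nearly all actives have a fitted effect of over 40% in size; top concentration of the series not given in the record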
Target sequence (P25779 123-467 limits assumed): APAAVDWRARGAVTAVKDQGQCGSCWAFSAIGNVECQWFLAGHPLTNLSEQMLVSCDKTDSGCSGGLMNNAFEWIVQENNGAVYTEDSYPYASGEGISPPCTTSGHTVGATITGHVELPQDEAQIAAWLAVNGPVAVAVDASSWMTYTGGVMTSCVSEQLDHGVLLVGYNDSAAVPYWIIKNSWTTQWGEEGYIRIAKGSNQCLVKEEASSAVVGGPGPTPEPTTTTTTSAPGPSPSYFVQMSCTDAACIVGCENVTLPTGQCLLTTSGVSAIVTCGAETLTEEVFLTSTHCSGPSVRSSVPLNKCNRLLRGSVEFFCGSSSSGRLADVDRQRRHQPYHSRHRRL
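Detergent-free condition (0.00005% Triton X-100) in acetate buffer pH 5.5 with DTT. 1.5 nM enzyme and compound were pre-mixed 15 min, then 2 uM Z-FR-AMC substrate added; reaction progress from fluorescence change between first and third reads (60 s).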
Cruzain inh Det = qHTS Assay for Promiscuous and Specific Inhibitors of Cruzain (with detergent) | purified cruzain, Z-FR-AMC fluorescence, 0.01% Triton | 200,000 compounds, 0.43% hits | Potency, µM, for inactives: max response, negative = inhibition, hits mostly inhibitors | Cruzipain (Trypanosoma cruzi), P25779; active means well fitted curve in the direction sought with a large enough effect; inconclusive means small, poorly fitted or top-dose-only effect, or another doubt; inactive means no such curve, though single readings can be large; an effect the other way counts as inactive or inconclusive;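 further: plate controls were neutral wells for no effect and buffer without enzyme for full effect; nearly all actives have a fitted effect of over 40% in size; top concentration of the series not given in the record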
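Z-FR-AMC hydrolysis (2 uM substrate) by cruzain (1.5 nM) monitored kinetically at ex 360/em 450 nm after 15 min room-temperature compound exposure; 0.01% Triton X-100, pH 5.5, 5 mM DTT.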
SARS PLP yeast = qHTS of Yeast-based Assay for SARS-CoV PLP | S. cerevisiae expressing SARS-CoV PLpro, growth rescue; control for the full effect not named in the record | Potency, µM (titrated, usually from 32.9 µM), inactives show at the highest dose activity, positive = growth rescue | 330,000 compounds, 0.19% hits | AID 485353, 2010; further: 0% is about no effect; nearly all actives have a fitted effect of over 55% in size; growth read by luminescence after 48 h
Lassa entry inh = qHTS for Inhibitors of binding or entry into cells for Lassa Virus | Lassa virus pseudotype entry inhibition, cell reporter; control for the full effect not named in the record | Potency, µM (doses to about 37.9 µM), for the others: top-dose activity change, negative = inhibition, actives largely listed as inhibitors | 300,000 compounds, 1.2% hits | AID 540256, 2011; active means well fitted inhibition curve with a large enough effect; inconclusive means small, poorly fitted or top-dose-only effect, or effect the other way; inactive means flat fitted curve, though single readings scatter; tested in HEK293 cells; further: on the % scale 0 is the no-effect control and ±100 the full control effect; nearly all actives have a fitted effect of over 50% in size; luciferase read-out
RE007 growth inh = qHTS Assay for Inhibitors of the HIV-1 protein Vpr. S. pombe RE007 Vpr strain, BacTiter-Glo ATP luminescence, 24 h; control for the full effect not named in the record. Potency, µM (series often up to 92.2 µM), inactives show at the highest dose activity change, negative = less growth. 360,000 compounds, 0.21% hits. AID 651644, 2012; active = well fitted falling curve with a large enough effect; inconclusive = small, poorly fitted or top-dose-only effect; inactive = no such curve, though single readings can be large or run the other way;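 further: on the % scale 0 is the no-effect control and ±100 the full control effect; nearly all actives have a fitted effect of over 50% in size; the assay follows cell death caused by Vpr and the record does not say whether a fall means rescue or toxicity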
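Fission yeast RE007 carrying one integrated HIV-1 vpr copy, seeded at OD 0.01 in PMG+AL medium with 23 nL pinned compound. Grown 24 h at 30 degrees; viability read by BacTiter-Glo luminescence after 5 min.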
MARV entry inh = qHTS for inhibitors of binding or entry into cells for Marburg Virus. Marburg virus pseudotyped entry inhibition, cell reporter; control for the full effect not named in the record; about a third of the inactives were read at about 46 µM. Potency, µM (top dose mostly 37.8 µM), without a hit: at the highest dose activity change, negative = inhibition, usual class: inhibitors. 300,000 compounds, 1.8% hits. AID 540276, 2011; active = well fitted inhibition curve with a large enough effect; inconclusive = small, poorly fitted or top-dose-only effect, or effect the other way; inactive = flat fitted curve, though single readings scatter; tested in HEK293 cells; about a fifth of its hits are not listed in these tables; further: on the % scale 0 is the no-effect control and ±100 the full control effect; luciferase read-out
StopGo reporter = High Throughput Screening for Foot and Mouth Disease Virus Antivirals; human cells with a luciferase reporter of 2A StopGo recoding; control for the full effect not named in the record; Potency, µM (top dose mostly 57.9 µM), without a hit: at the highest dose signal change, negative = less light; 410,000 compounds, 1.2% hits; active = well fitted falling curve with a large enough effect; inconclusive = small, poorly fitted or top-dose-only effect; inactive = no such curve, though single readings can be large or run the other way; tested in HEK293T cells; further: on the % scale 0 is the no-effect control and ±100 the full control effect; nearly all actives have a fitted effect of over 45% in size; luciferase light after 4 h
An asterisk follows results filed as active; ? = inconclusive; . = no result given; & = joins results of further samples; [ ] = another dose, or the depositor's remark. Unless noted, the call rests on the fitted dose curve; in most records, active means well fitted rising curve with a large enough effect; inconclusive means small, poorly fitted or top-dose-only effect; inactive means no such curve, though single readings can be large or run the other way. Potency means the concentration at half of the fitted maximal effect.

Structure,NS1 inh,Cruzain inh noDet,Cruzain inh Det,SARS PLP yeast,Lassa entry inh,RE007 growth inh,MARV entry inh,StopGo reporter
COc1cc(/C=N/NC(=O)CNC(=O)c2ccco2)ccc1O,.,.,.,-0.8%,-16.2%,3.3%,1.9%[46.1 µM],5.5%
O=C(CSc1nnc(-c2cccnc2)s1)Nc1ccnc2ccccc12,2.8%,0.1%,-7.7%,8.7%,?,-13.5%,?,?
Cc1nc(NCCN2CCOCC2)c2oc3ccccc3c2n1,-4.2%,-2.6%,1.4%,2.4%,-11.0%,-6.1%,7.7%,-8.1%
O=C(Nc1ccc(Cl)cc1)Nc1nnc(CSCc2ccc(Cl)cc2)s1,-1.1%,5.01µM*,0.6%,4.2%,.,2.1%,.,?
O=C(NCc1ccc(F)cc1)c1c(O)nc2ccccn2c1=O,.,-2.9%,-0.8%,.,.,.,19.0%[46.1 µM],-7.0%
CCOc1cccc(-c2cc(-c3n[nH]c(=S)n3CC)c3ccccc3n2)c1,10.2%,-8.8%,-7.4%,-24.4%,-20.8%,4.1%,-4.5%,3.0%
CCCc1cc(C(=O)Nc2ccc(F)c(Cl)c2)no1,-21.5%,.,.,-17.9%,4.8%[46.1 µM],-23.6%,?,50.8%[activator]
CCOC(=O)c1c(NC(=O)COC(=O)c2ncc(Cl)c(Cl)c2Cl)sc(C(=O)N(C)C)c1C,.,.,.,-4.1%,2.8%,-1.4%,27.5%,3.5%
O=C(C1CCCN(c2ncnc3c2nc2n3CCCCC2)C1)N1CCN(c2ccccc2)CC1 (stereo not given),-31.3%,.,.,?,.,13.3%,.,?
COc1ccc(N2CC(C(=O)NCCC3=CCCCC3)CC2=O)c(OC)c1 (stereo not given),.,.,.,2.2%,-16.8%,0.6%,-4.9%,-14.7%
Nc1ccc(Oc2ccc(Br)cc2)cc1,9.6%,-0.1%,-5.2%,10.4%,-3.4%,20.4%,18.1%,2.0%
CCNc1nc(N)c(C(=O)c2ccc(Cl)s2)s1,-48.9%,-1.7%,-3.4%,-7.2%,?,6.4%,?,61.2%[activator]
CCN(CC(=O)Nc1c(F)cccc1F)C(=O)CCN1C(=O)C2CC=CCC2C1=O (stereo not given),.,.,.,6.1%,18.2%,16.9%,3.1%[46.1 µM],-12.3%
CCOC(=O)N1CCN(C(=O)/C(=C/c2ccccc2OC)NC(=O)c2ccccc2)CC1,-11.6%,1.4%,-2.7%,2.8%,?,9.6%,13.5%,30.8%[activator]
Cn1c(=O)n(C)c2cc(/C=N/NC(=O)c3ccc(Cl)cc3)ccc21,-4.9%,.,.,-0.9%,.,-4.6%,.,-15.3%
COc1ccc(CCNc2ccc([N+](=O)[O-])cn2)cc1,-10.1%,.,.,-11.2%,.,31.7%,.,-0.5%
CCN1CCCC1CNC(=O)c1cn(CC)c2ccc(S(=O)(=O)N3CCCCCC3)cc2c1=O (stereo not given),2.7%,-5.7%,1.8%,-4.5%,.,.,1.6%,.
c1ccc(Sc2ncccn2)nc1,8.7%,.,.,0.5%,.,-2.8%,.,3.1%
Cc1cc(C)c2c(c1)NC(=O)C2(O)CC(=O)c1cccs1 (stereo not given),-2.0%,-5.5%,3.2%,.,0.1%,1.1%,18.0%[46.1 µM],9.2%
COc1ccc(C(=O)NCc2nnc(SCC(=O)N3CCC(C)CC3)o2)cc1OC,-0.3%,5.9%,-1.8%,2.2%,0.7%,9.4%,-4.7%[46.1 µM],-3.2%
CCNC(=S)NNc1nc(N2CCOCC2)nc(N2CCOCC2)n1,.,.,.,1.2%,26.7%[46.1 µM],24.4%,4.2%[46.1 µM],-4.2%
S=C(c1ccc2c(c1)OCO2)N1CCCCC1,-5.6%,1.0%,1.4%,-2.4%,12.8%,-10.0%,-0.2%,4.6%
COc1cccc(CNC(=O)CN(c2ccc(C)cc2)S(=O)(=O)N(C)C)c1OC,.,6.7%,1.3%,.,-0.1%[46.1 µM],.,7.6%[46.1 µM],-4.1%
Cc1ccc(C(=O)Nc2ccc(SC(F)F)cc2)s1,.,.,.,-5.3%,?,-3.6%,-8.1%[14.2 µM],-9.3%
O=C(NCCS(=O)(=O)N1CCN(c2ccc(F)cc2)CC1)C1CC(=O)N(c2ccccc2)C1 (stereo not given),3.0%,-10.6%,-0.9%,2.9%,-10.6%[46.1 µM],12.0%,.,-13.5%&0.8%
CCOC(=O)C1C(=O)N(C(=O)c2cncc(Br)c2)CC1c1ccccc1 (stereo not given),-12.0%,-16.9%,-2.1%,-9.6%,-15.9%,-19.6%,1.7%,-17.8%
Cc1ccc(NC2=CC(=O)C(=O)c3ccccc32)cc1,-18.4%,2.8%,-4.4%,-54.3%,?,?,?,-39.3%
Cc1ccc2nc(-c3ccsc3)c(Nc3ccc(C(C)C)cc3)n2c1,.,-2.4%,-0.4%,.,7.7%[46.1 µM],.,3.1%[46.1 µM],9.8%
O=C(CSCc1c(Cl)cccc1Cl)NCc1cccnc1,-8.7%,16.0%,1.5%,-1.1%,-25.3%,8.5%,-0.5%,.
CCn1c(=O)n(CC)c2cc(N3CCCC3)c(NC(=O)Nc3cc(C)cc(C)c3)cc21,.,-7.5%,-0.8%,.,-12.4%[46.1 µM],.,.,-5.5%
O=C(NCCc1ccc(Cl)cc1)C1CCCN(c2ncnc3c2nc2n3CCCCC2)C1 (stereo not given),-3.9%,.,.,2.6%,-6.2%[46.1 µM],18.0%,-4.8%[46.1 µM],-13.7%
C=CCOc1ccc(/C=C/C(C)=N\O)cc1,-38.6%,0.3%,-26.6%,-17.3%,-4.7%,-14.2%[3.69 µM],1.7%,14.0%
Cc1cc(C(=O)Nc2ccccc2C#N)n(-c2ccccc2)n1,0.1%,1.7%,-4.1%,4.0%,.,17.0%,.,-0.4%
COc1ccc(C(=O)Nc2nc3ccccc3[nH]2)cc1S(=O)(=O)N1CCOCC1,-10.1%,.,.,-1.6%,.,2.5%,.,-6.6%
O=S(=O)(O)c1nnc2sc3ccccc3n12,-9.7%,1.9%,4.4%,3.2%,0.5%,1.1%,2.9%,3.5%
COc1ccc(NC(=O)COC(=O)c2ccncc2)c(OC)c1,-2.0%,.,.,0.3%,-1.2%[46.1 µM],-7.4%,-11.8%[46.1 µM],4.9%
O=C(c1cccc([N+](=O)[O-])c1)N1c2nc(-c3ccco3)nn2C2(CCCCC2)[C@@H]2CCCC[C@@H]21,.,-4.2%,-3.3%,.,-8.0%[46.1 µM],.,-11.6%[46.1 µM],-20.6%
COc1ccc(CCNC(=O)CSc2nc3scc(-c4ccccc4)c3c(=O)[nH]2)cc1,.,.,.,-3.5%,-25.4%,4.7%,?,?
Cc1nc2ccccc2n1Cc1n[nH]c(=S)n1-c1ccc(Cl)cc1,7.2%,10.8%,-1.6%,5.8%,5.5%[46.1 µM],7.9%,0.9%,4.8%
O=C(Oc1ccc(C(=S)N2CCOCC2)cc1)c1cccc(Cl)c1,-32.9%,.,.,-9.0%,-24.4%,3.4%,15.7%,3.1%
CC(=O)N1c2ccc(S(=O)(=O)NCC3CCC(C(=O)NC4CCCCC4)CC3)cc2CC1C (stereo not given),-20.6%,.,.,0.9%,.,2.1%,.,0.0%
CN(C)c1ccc(C(=O)N/N=C/c2cc(Br)cc(Br)c2O)cc1,4.3%,.,.,?,?,8.0%,?,-15.4%
COCc1cc(Sc2ccc(Cl)cc2)nc(-c2ccccc2)n1,-2.7%,-6.4%,0.0%,3.5%,-21.2%,-4.4%,4.2%,-18.2%
Cc1ccc(CCNC(=O)c2ccc3nc(N4CCC(C)CC4)sc3c2)cc1,.,4.9%,-2.7%,.,?,.,0.1%[46.1 µM],-11.5%
COc1ccc(N2C(=O)C3CCCN3C2c2ccc(C)o2)cc1Cl (stereo not given),-10.1%,0.5%,-0.4%,-7.2%,?,-20.4%,-5.7%,2.0%
CCCn1nnnc1SCC(=O)c1ccc(NC(C)=O)cc1,-9.3%,3.6%,-4.0%,-10.9%,0.1%,29.2%,-2.4%[46.1 µM],13.6%
c1ccc(Nc2ccc(-n3ccnc3)nn2)cc1,-4.2%,.,.,-0.7%,.,8.8%,.,11.2%
O=C1NC(NS(=O)(=O)c2ccc(Cl)cc2)(C(F)(F)F)C(=O)N1CCc1ccccc1 (stereo not given),3.4%,.,.,0.7%,.,4.2%,.,5.2%
COCCNC(=O)C1Cc2cc(S(=O)(=O)N3CCCC3)ccc2N1C(C)=O (stereo not given),13.0%,.,.,1.6%,.,-13.6%,.,0.6%
Cc1ccccc1-n1ncc2c1CC(C)(C)CC2NC(=O)CCC1=NNC(=O)CC1 (stereo not given),-7.8%,.,.,-0.6%,.,8.6%,.,15.3%
CN(C)CCCNCCCCNC(=O)/C=N/O,7.6%,7.8%,5.7%,-0.6%,2.8%,-7.1%,?,-15.3%
CC(C)CNC(=O)CN(c1ccccc1)S(=O)(=O)c1ccccc1[N+](=O)[O-],5.6%,.,.,0.3%,5.8%,2.6%,6.2%[46.1 µM],16.1%
COC(=O)c1cccc(CN2C(=O)SC(Nc3ccccc3C)C2=O)c1 (stereo not given),.,-5.9%,-6.7%,.,-8.3%[46.1 µM],.,-1.5%[46.1 µM],-5.5%
CCOC(=O)Cc1csc(NC(=O)Nc2ccc(OC(F)(F)F)cc2)n1,2.9%,.,.,0.2%,?,-16.5%,.,?
CN(C)c1ccc(NS(=O)(=O)c2ccc(-c3csnn3)cc2)cc1,-2.5%,.,.,0.0%,?,31.7%,?,6.4%
Fc1cc(F)c(F)c(SCn2cc(Br)cn2)c1F,.,.,.,0.2%,24.7%[46.1 µM],-0.5%,-0.5%,3.5%
CN(CC(=O)NCc1ccccn1)S(=O)(=O)c1ccc(F)cc1,-3.2%,.,.,-0.9%,4.0%,-2.8%,-18.3%[46.1 µM],20.3%

Hits appear at their usual frequency; 4.8% or so of the library scored in one or more.
